BJeLR viability – BJeLR cell viability loss. 0.17% of 300,000 active. inhibition, % (no concentration beside the values). BJeLR (HRASV12) viability, CellTiter-Glo ATP luminescence, 48 h; reference of the scale not given here;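 active = replicate mean above 50%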;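 also: 50 nL library stock added to about 25 µL; numbers are from one replicate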
PrP UTR inh – inhibition of PrP 5' UTR reporter expression. 0.35% of 340,000 active. inhibition, % (concentration not given with the values). AID 488862. cell-based PrP 5' UTR mRNA reporter, plate reader;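 active = every replicate at 50% or more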;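 also: 0 = median of the neutral control wells; tested in H4 reporter cells; numbers are from one replicate; inactives centre near -14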
Autofluor counter – flagged as autofluorescent in microsphere protease counterscreen; AID 624483; fluorescence intensity (no concentration beside the values); 3.1% of 360,000 active; compound autofluorescence counterscreen, microsphere flow cytometry; active compounds read high;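 active = at least 3 SD above the mean of all compounds, about 16000 in these data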;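 also: 100 nL of 1 mM stock went into each well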
Mtb hypoxia inh – inhibitors of hypoxia-regulated fluorescent reporter in Mycobacterium tuberculosis; M. tuberculosis hypoxia-regulated fluorescent reporter, fluorescence; 0.1% of 300,000 active; fluorescence inhibition, % (concentration not given with the values); AID 1159583;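 active = 35 to 45% if threefold the growth effect, above 45% if 1.5-fold the growth effect; inactive = the rest, general growth blockers included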;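 also: wells of about 50 µL received 100 nL stock; 0% = vehicle wells and 100% = reference inhibitor wells; whole bacteria with a GFP reporter of the hypoxia response; strong numbers were not always called active; many hits fall short of the cut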
ugtP null kill – compounds lethal to S. aureus RN4220 ugtP deletion mutant | OD600 growth, 16 h; some inactives read as strong as hits | growth inhibition, % (test concentration not listed) | 0.54% of 330,000 active;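 active = z-score under -3 and OD600 up to 0.15 on both plates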;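 also: plate controls were untreated wells for no effect and antibiotic for full effect; wells of about 80 µL received 100 nL stock; the first replicate is given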
RN4220 kill – kills Staphylococcus aureus RN4220 | inhibition, % (no concentration beside the values) | S. aureus RN4220 growth, OD600, 16 h | 0.33% of 330,000 active;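 active = z-score of -3 or lower and OD600 up to 0.18 on both plates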;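 also: plate controls were untreated cells for no effect and reference antibiotic for full effect; stock transfer was 100 nL into about 80 µL; one replicate is shown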
Mtb hypoxia inh growth – also measured in Mtb hypoxia inh; calls as there; growth inhibition, %; measured here: M. tuberculosis growth (absorbance);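 0% = vehicle and 100% = reference antibiotic; read after six days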
Numbers without * were called inactive; nt = no result given.

SMILES | BJeLR viability | PrP UTR inh | Autofluor counter | Mtb hypoxia inh | Mtb hypoxia inh growth | ugtP null kill | RN4220 kill
C/C(CC(=O)Nc1cccc(Cl)c1Cl)=N\NC(=O)c1ccccc1Br | 10 | -12 | 4142 | nt | nt | nt | nt
COc1ccnc(N=CNOCc2ccc(C)cc2)c1C#N | 5 | -40 | 2488 | nt | nt | 1 | 1.2
CCCCOC(=O)c1ccc(NC(=O)COC(=O)CSc2nc(C)cc(C)n2)cc1 | -2 | -35 | 10691 | 5 | 3 | -1 | 1.7
O=C(COC(=O)C1(c2ccccc2F)CCCC1)N1CCOCC1 | 2 | -15 | 4205 | nt | nt | 9 | 0.6
CCCCN(C)Cc1c(O)ccc2c(-c3ccccc3)cc(=O)oc12 | -9 | -12 | 3764 | 9 | 20 | -5 | 5.8
O=[N+]([O-])c1ccc2nonc2c1Nc1cccc(F)c1 | -11 | -10 | 3995 | 0 | 6 | 0 | 29
CCOC(=O)C(NC(=O)c1cccc(Cl)c1)(OCc1ccccc1)C(F)(F)F (configuration not stated) | -4 | -9 | 10771 | 9 | 9 | 6 | 8.9
NC(=O)c1ccc(NC(=O)CN2CCN(c3ccccc3)CC2)cc1 | -4 | -14 | 3843 | 10 | 5 | 8 | 1.2
CCn1cnc2cc(NS(=O)(=O)c3ccc(OC)c(OC)c3)ccc21 | 19 | -8 | 2872 | 7 | 1 | -1 | -0.1
CCn1cc(CN2CCCC(C(=O)Nc3cccc(-c4cc5ccccc5[nH]4)c3)C2)cn1 (configuration not stated) | 5 | -4 | 6508 | 10 | 1 | 6 | 2.9
COc1ccc2nc(C)cc(N3CCC(C(N)=O)CC3)c2c1 | -6 | 2 | 4313 | 2 | 9 | 9 | 2.9
CN1C(=O)CC(P(=O)(c2ccccc2)c2ccccc2)N(C)C1=O (configuration not stated) | -1 | 6 | 2784 | nt | nt | 0 | 1.3
COC(=O)C1=C(N)Oc2cc(C)n(CCc3ccccc3)c(=O)c2C1c1cccnc1 (configuration not stated) | -4 | -11 | 3294 | nt | nt | -1 | 2.7
O=C(Nc1ccc(Cl)c(C(F)(F)F)c1)C(=O)N1CCCCC1 | -7 | -12 | 2154 | 2 | 12 | -4 | -3.8
COc1ccc(OC)c(Nc2cc(-c3ccccc3)nc(N)n2)c1 | 26 | nt | nt | 8 | 11 | -1 | 3.0
O=C(N/N=C/C(Cl)=C/c1ccc([N+](=O)[O-])cc1)C(=O)Nc1cccc(C(=O)O)c1 | 12 | -12 | 6181 | nt | nt | nt | nt
C/C(=N\Nc1ncc(Cl)cc1Cl)c1cccs1 | 3 | -36 | 4482 | nt | nt | nt | nt
Cc1ccc(-c2nnc(CSc3nc(C(C)C)nc4sc(C)c(C)c34)o2)cc1 | -3 | -6 | 3202 | 4 | 6 | 11 | 0.9
Cc1cn(C(=O)c2cccc(Br)c2)c(C)n1 | 4 | 5 | 2621 | 0 | 0 | -1 | 3.4
C[C@@H]1CC2(CCCC[N+]2(C)C)C[C@H]1C | -1 | -13 | 4384 | 6 | -6 | 8 | 1.6
COC(=O)c1c(NC(=O)c2ccc(OC(C)C)cc2)sc2c1CC(C)(C)NC2(C)C | 25 | 10 | 5772 | -2 | 2 | 5 | -2.4
COc1ccc(C2=NOC(C(=O)NCc3cccnc3)C2)cc1 (configuration not stated) | -8 | -3 | 3556 | 5 | 13 | 16 | 3.7
O=C(NNC(=O)c1ccc(Br)s1)c1cccc(Cl)c1 | nt | -15 | 3144 | 13 | -6 | 1 | 3.5
CCOc1ccc2nc(SCC#N)c(C#N)cc2c1 | -16 | -48 | 3593 | 16 | 7 | 7 | 4.1
CC(C)C1CC(C(F)(F)F)n2nc(C(=O)O)cc2N1 (configuration not stated) | -1 | 18 | 4132 | 1 | 13 | 5 | 5.6
COc1ccccc1N1CCN(CC(O)COc2ccc(C)c(C)c2)CC1 (configuration not stated) | -12 | -24 | 3189 | 5 | -1 | 11 | 0.6
COc1cc(C(=O)NCC(=O)NCCN2C(=O)S/C(=C\c3ccc4c(c3)OCO4)C2=O)cc(OC)c1OC | 6 | -21 | 6152 | 3 | 0 | 13 | 3.3
COc1ccc(-c2noc(CCC(=O)N3CCN(c4cccc(C)c4)CC3)n2)cc1 | nt | -33 | 3003 | -8 | 11 | 10 | 6.4
CC1CCN(C(=O)CCNC(=O)c2ccccc2Cl)CC1 | -2 | -5 | 5923 | -2 | 2 | -4 | -2.6
COc1cccc(CNC(=O)CCC2CCCN(C(=O)c3ccc(F)c(Cl)c3)C2)c1 (configuration not stated) | 3 | -9 | 6382 | 7 | 4 | 2 | -0.1
COc1ccccc1NC(=O)C1=C(C)NC(=O)NC1c1cccc(OC)c1OC (configuration not stated) | 1 | -14 | 2316 | 4 | 0 | 4 | -7.0
COc1cc(CN(C)c2ncnc3sccc23)ccc1OC(F)F | 4 | 3 | 4670 | 4 | 6 | 7 | 2.3
CCOC(=O)C1=C(CC)Nc2ccccc2N=C1NC(=O)c1ccc(C)c(S(=O)(=O)N2CCOCC2)c1 | nt | -12 | 6182 | 3 | 6 | 8 | 3.1
O=C(NN=Cc1cccc(F)c1)c1ccc(Cl)cc1 | nt | nt | nt | -6 | 4 | -1 | -1.5
COc1ccc(C(c2nnnn2C2CCCC2)N2CCC(C)CC2)c(OC)c1 (configuration not stated) | 3 | -12 | 3624 | nt | nt | 5 | 1.6
O=C(CN(Cc1ccccc1)S(=O)(=O)c1ccccc1)N/N=C/c1ccccc1[N+](=O)[O-] | -6 | -32 | 10651 | nt | nt | nt | nt
O=C(NCC1CCCO1)c1c(O)nc2sccn2c1=O (configuration not stated) | -5 | -12 | 5384 | 12 | -3 | 6 | 6.0
CCCn1c(N)c(C(=O)CSc2nnc3n2CCCCC3)c(=O)n(C)c1=O | nt | -17 | 3656 | -8 | -1 | 3 | 3.7
O=C(CCNC(=O)C1CCN(S(=O)(=O)c2ccccc2)CC1)NCc1ccc(Cl)cc1 | 12 | -22 | 5141 | -2 | 9 | -2 | -2.5
CC1CCCC(NC(=O)COc2ncnc3ccccc23)C1C (configuration not stated) | nt | -21 | 3767 | 7 | 0 | 2 | 0.5
C=CCNC(=O)CCC(=O)NNc1nc2ccccc2c2nc(-c3ccccc3)nn12 | -1 | -15 | 1982 | 8 | 7 | -6 | 4.8
O=C(c1nc2ncccn2n1)N1CCN(c2ccc(F)cc2)CC1 | -1 | -15 | 6056 | nt | nt | 6 | 1.1
CCc1ccc(NC(=O)c2ccccc2Br)cc1 | -6 | -46 | 3464 | 1 | 2 | -8 | 3.8
Cc1ccccc1OCCC(=O)N(CC(C)C)c1c(N)n(Cc2ccccc2)c(=O)[nH]c1=O | nt | -3 | 3403 | 0 | -9 | 6 | 2.0
CN(C(=O)COn1nnc2ccc(S(=O)(=O)N3CCOCC3)cc21)c1ccccc1 | 5 | -11 | 5873 | 3 | 6 | 6 | 1.6
NC(=O)Nc1ccc(Oc2ncc(C(F)(F)F)cc2Cl)cc1 | 9 | -10 | 4457 | -4 | 14 | 8 | 1.7
CCOC(=O)c1c(-c2ccc(C)o2)csc1NC(=S)NC(=O)c1ccc(F)cc1 | -3 | -25 | 2024 | 10 | 1 | 36 | 1.2
Oc1ccccc1CN1CCN(C(c2ccccc2)c2ccccc2)CC1 | -9 | -2 | 3327 | 3 | -5 | -1 | -6.1
CNC(=O)c1cccn(Cc2cccc(C(F)(F)F)c2)c1=O | -6 | -33 | 3828 | 10 | 15 | -2 | 4.6
Cc1ccccc1-c1nnc(-c2ccc(Br)cc2)o1 | 3 | -125 | 6359 | 8 | 13 | -11 | 3.5
CCN(CC)C(=O)c1ccc(CS(=O)(=O)c2ccc(OC)cc2)o1 | -1 | -14 | 5580 | nt | nt | 1 | 0.7
CCCN(C(=O)/C=C/c1ccc(S(=O)(=O)N(CC)CC)cc1)C1CCS(=O)(=O)C1 (configuration not stated) | nt | -17 | 3504 | 10 | 4 | 8 | 8.0
Cc1nn(CC(=O)Nc2nccs2)c(C)c1[N+](=O)[O-] | -3 | -17 | 3782 | 0 | 0 | -2 | 5.1
Cc1cc(Cl)ccc1C(=O)C1CCCN(C(=O)CCN2CCCO2)C1 (configuration not stated) | -5 | -10 | 4089 | 17 | 16 | 4 | 0.3
CCOc1ccc(C(=O)Nc2nc(C)c(C(=O)OC)s2)cc1 | -5 | nt | 5879 | 4 | 8 | -1 | 3.6
CCN(CC)S(=O)(=O)c1ccc(NC(=O)Cn2c(=O)sc3ccccc32)cc1 | -1 | -8 | 4283 | -12 | 2 | 10 | -4.5
Cc1ccc(-c2nnc(SCC(=O)Nc3sc(C)c(C)c3C#N)n2C)cc1 | -5 | -7 | 2117 | nt | nt | -1 | 1.3
COc1cccc(C(=O)Nc2cccc(-c3nc4ncccc4o3)c2C)c1 | 6 | -30 | 3139 | -3 | 4 | -11 | -2.6
CCn1nc(C)c(/C=N/NC(=O)Cc2ccc(Cl)cc2)c1C | 7 | -58 | 8294 | nt | nt | nt | nt
CC(C)C[C@H](NC(=O)N1CCn2c1nc1ccccc12)C(=O)N1CCCCC1 | -3 | -16 | 5041 | 6 | 3 | 8 | 1.3

7 of the compounds above, comma-delimited.
Structure,BJeLR viability,PrP UTR inh,Autofluor counter,Mtb hypoxia inh,Mtb hypoxia inh growth,ugtP null kill,RN4220 kill
CNC(=O)c1cccn(Cc2cccc(C(F)(F)F)c2)c1=O,-6,-33,3828,10,15,-2,4.6
Cc1ccccc1-c1nnc(-c2ccc(Br)cc2)o1,3,-125,6359,8,13,-11,3.5
CCN(CC)C(=O)c1ccc(CS(=O)(=O)c2ccc(OC)cc2)o1,-1,-14,5580,nt,nt,1,0.7
CCCN(C(=O)/C=C/c1ccc(S(=O)(=O)N(CC)CC)cc1)C1CCS(=O)(=O)C1 (configuration not stated),nt,-17,3504,10,4,8,8.0
Cc1nn(CC(=O)Nc2nccs2)c(C)c1[N+](=O)[O-],-3,-17,3782,0,0,-2,5.1
Cc1cc(Cl)ccc1C(=O)C1CCCN(C(=O)CCN2CCCO2)C1 (configuration not stated),-5,-10,4089,17,16,4,0.3
CCOc1ccc(C(=O)Nc2nc(C)c(C(=O)OC)s2)cc1,-5,nt,5879,4,8,-1,3.6

Retrieved by structure from the list above (3):
SMILES | BJeLR viability | PrP UTR inh | Autofluor counter | Mtb hypoxia inh | Mtb hypoxia inh growth | ugtP null kill | RN4220 kill
CNC(=O)c1cccn(Cc2cccc(C(F)(F)F)c2)c1=O | -6 | -33 | 3828 | 10 | 15 | -2 | 4.6
Oc1ccccc1CN1CCN(C(c2ccccc2)c2ccccc2)CC1 | -9 | -2 | 3327 | 3 | -5 | -1 | -6.1
CCn1nc(C)c(/C=N/NC(=O)Cc2ccc(Cl)cc2)c1C | 7 | -58 | 8294 | nt | nt | nt | nt

Additional results
SMILES | BJeLR viability | PrP UTR inh | Autofluor counter | Mtb hypoxia inh | Mtb hypoxia inh growth | ugtP null kill | RN4220 kill
CC(C)CC(=O)NC(=S)Nc1cc(C(F)(F)F)ccc1N1CCOCC1 | -8 | 15 | 2036 | 2 | 4 | 30 | 1.0
O=C(NCC1CCCO1)C1CCN(C2CCN(C(=O)CC3CCCC3)CC2)CC1 (configuration not stated) | 0 | -7 | 2046 | 8 | 0 | -1 | 1.9
C=CC1c2cccc(C)c2N(S(=O)(=O)c2ccc(C)cc2)C(c2ccc(OC(C)=O)cc2)C1(C#N)C#N (configuration not stated) | nt | nt | nt | 6 | 15 | -2 | 28
Nc1nonc1-c1nc2ccccc2n1CC(=O)N/N=C\c1ccc(-c2ccc(Cl)cc2)o1 | -3 | 3 | 3548 | nt | nt | nt | nt
O=C(CSc1nc2sc3c(c2c(=O)n1-c1ccccc1)CCCC3)N/N=C/c1ccc(C(=O)O)cc1 | 7 | -9 | 5307 | nt | nt | nt | nt
Cc1cc2cc(CCNC(=O)C(C)C)c(=O)[nH]c2cc1C | -10 | 1 | 4295 | 0 | 4 | -1 | 6.3
Cc1nc(-c2cccc(NC(=O)C3CCCCC3)c2)cs1 | -3 | 3 | 3607 | -1 | 10 | 5 | 15
O=C(NN=Cc1cccnc1)c1cccc(F)c1 | nt | nt | nt | 12 | 16 | 10 | 4.2

Screens as filed in PubChem BioAssay.

Compounds as they come; overall some 4.1% were active at least once.
